# Screening results as filed in PubChem.
# TSHR agonist – qHTS Assay for Agonists of the Thyroid Stimulating Hormone Receptor | Thyrotropin receptor (Homo sapiens), P16473 | HEK293-CNG-TSHR cells (CNG channel as cAMP sensor), membrane potential dye, cAMP | Potency, µM (titrated, usually from 57.1 µM), without a hit: top-dose activation, usual class: activators | 73,000 compounds, 0.48% hits; active = well fitted activation curve of enough size with the parental cells flat; inconclusive = any curve in the parental cells; inactive = parental cells flat and receptor cells flat or falling; further: potency means the concentration at half of the fitted maximal effect; % of control where 0% means no effect; weak receptor curves with flat parental cells got no call and are not listed
# Target sequence (P16473 whole entry, looked up): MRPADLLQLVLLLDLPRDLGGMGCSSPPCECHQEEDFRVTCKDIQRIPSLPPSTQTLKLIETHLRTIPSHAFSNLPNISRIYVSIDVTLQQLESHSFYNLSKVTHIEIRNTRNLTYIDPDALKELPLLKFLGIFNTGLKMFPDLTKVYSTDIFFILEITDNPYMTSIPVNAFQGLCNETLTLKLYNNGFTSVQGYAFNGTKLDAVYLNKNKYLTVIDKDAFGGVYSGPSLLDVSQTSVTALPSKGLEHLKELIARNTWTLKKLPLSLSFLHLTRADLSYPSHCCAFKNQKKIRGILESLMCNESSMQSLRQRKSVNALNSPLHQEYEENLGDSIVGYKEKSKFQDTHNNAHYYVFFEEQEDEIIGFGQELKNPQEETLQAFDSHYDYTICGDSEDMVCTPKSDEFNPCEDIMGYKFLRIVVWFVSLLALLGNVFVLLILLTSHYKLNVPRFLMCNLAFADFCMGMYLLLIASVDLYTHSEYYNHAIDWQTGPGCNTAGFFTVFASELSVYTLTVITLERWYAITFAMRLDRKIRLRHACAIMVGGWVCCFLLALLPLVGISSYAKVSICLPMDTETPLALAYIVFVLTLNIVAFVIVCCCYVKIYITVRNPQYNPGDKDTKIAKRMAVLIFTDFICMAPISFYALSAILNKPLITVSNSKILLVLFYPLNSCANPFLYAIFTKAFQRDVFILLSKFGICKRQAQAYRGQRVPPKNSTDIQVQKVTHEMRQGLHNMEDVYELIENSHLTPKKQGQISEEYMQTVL
#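 cAMP rise detected as CNG-channel membrane depolarization by fluorescent dye (emission 590 nm), 30 min after compound, following 60 min dye loading containing 100 uM RO 20-1724 at room temperature. Cells: TSHR/CNG HEK 293, with parental CNG HEK 293 as control.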
# A647 fluor – qHTS Assay for Spectroscopic Profiling in A647 Spectral Region; Compound fluorescence, A647 channel (570/671 nm), Tris buffer; max dye-equivalent concentration, M; 59,000 tested, under 10 active; AID 592, 2007; active means above 1 µM dye equivalent; inconclusive means 0.1 to 1 µM; inactive means 0.1 µM or less;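 further: values scaled relative to a standard on each plate; highest value over a series up to 38 µM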
#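 Compounds pinned into 100 mM Tris pH 8.0, 15 min at room temperature, then read with 570 nm excitation/671 nm emission filters. Fluorescence normalized to an on-plate six-point Alexa 647 standard curve, giving dye-equivalent concentration per compound concentration.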
# Resorufin autofl – qHTS Assay for Spectroscopic Profiling in Resorufin Spectral Region; max dye-equivalent concentration, M; 59,000 compounds, 0.04% hits; Compound fluorescence, resorufin region 547/598 nm, buffer; stronger effect = higher value; active = above 10 nM dye equivalent; inconclusive = 1 to 10 nM; inactive = 1 nM or less; a few of its hits are not listed in these tables; further: highest value over a series up to 38 µM
#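 Compounds in 100 mM Tris, pH 8.0, incubated 15 min at room temperature, then fluorescence read at 547 nm excitation/598 nm emission. Signal converted to dye-equivalent concentration via an on-plate six-point resorufin standard curve, per compound concentration.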
# AID923 – qHTS Assay for Allosteric/Competitive Inhibitors of Caspase-1: Spectroscopic Profiling in AFC Spectral Region; compound fluorescence, AFC spectral region (405/520 nm); almost no hit is shown here; Potency, µM (series often up to 57.5 µM), for the others: top-dose fluorescence increase, usual class: activators; 75,000 compounds, 1.1% hits; AID 923, 2007; active means well fitted activation curve with a large enough effect; inconclusive means small, poorly fitted or top-dose-only effect;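 further: potency means the concentration at half of the fitted maximal effect; 0% is about no effect; scaled to a free AFC standard on each plate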
#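 Compound autofluorescence profiled at 405 nm ex/520 nm em during kinetic caspase 1 run (50 nM enzyme, 5 uM Ac-WEHD-AFC, HEPES pH 7.5, 10 mM DTT). Titration up to 57 uM; baseline from regression intercept, normalized to AFC standard curve.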
# A488 autofl – qHTS Assay for Spectroscopic Profiling in A488 Spectral Region; compound autofluorescence, A488 spectral region, dye equivalency; stronger effect = higher value; 59,000 compounds, 0.1% hits; max dye equivalency, M; active = above 10 nM dye equivalent; inconclusive = 1 to 10 nM; inactive = 1 nM or less; about half of its hits are not listed in these tables;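 further: highest value over a series up to 38 µM; compound alone in buffer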
#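 Read-out: relative fluorescence at 480/540 nm, expressed as Alexa 488 dye-equivalent concentration from a six-point A488 standard included per plate. Conditions: 100 mM Tris, pH 8.0; 15 min incubation, room temperature.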
# * marks the source's active call; other numbers are inactive results; i = inactive; ? = inconclusive; / = no result given; & = joins results of further samples; [ ] = remark or other dose. This is a subset. The share of hits here may be higher or lower than overall.
# The line under a structure holds: TSHR agonist | A647 fluor | Resorufin autofl | AID923 | A488 autofl
> CCOC(=O)C1=C(N)Oc2cc(C)oc(=O)c2C12C(=O)N1c3c(cccc32)C(C)CC1(C)C (stereo not drawn)
    -7% | 6.2e-09 | i | 0.2% | i
> O=[N+]([O-])c1ccccc1
    -6% | / | / | 0.2% | /
> O=C1NC(=O)C(CCc2ccncc2)(C2CCCCC2)C(=O)N1
    7% | 4.4e-08 | i | 0.1% | i
> COC(=O)CC1=C(C(=O)OC)C2(C(=O)N(C)c3ccccc32)C(C#N)=C(N)O1 (stereo not drawn)
    0% | 2e-08 | i | 0.4% | i
> O=[N+]([O-])c1ccccc1CCl
    ? | / | / | 4.0% | /
> O=C(NC(Cc1ccccc1)C(=O)N1CCC2(CC1)OCCO2)C1CCCCC1 (stereo not drawn)
    6% | 3.5e-08 | i | -0.9% | i
> Cn1c[n+](C)cc1C(O)c1ccccc1 (stereo not drawn)
    7%[11.4 µM] | 5.6e-09 | i | -0.3% | i
> Oc1ccc(CCNCc2cc3c(cc2Br)OCO3)cc1
    6%[11.4 µM] | 1e-09 | i | 0.8%[11.5 µM] | i
> COC(=O)C(C)Oc1cc(C)cc2oc(=O)c3c(c12)CCCC3 (stereo not drawn)
    / | 1.2e-08 | i | -2.3% | i
> CCn1cc(C(=O)O)c(=O)c2ccc(Cc3ccccc3)nc21
    ? | 4.1e-09 | i | / | i
> C[C@@]12CCC(=O)C=C1C=C[C@H]1[C@H]3CC[C@](O)(CCC(=O)O)[C@]3(C)CC[C@@H]12
    -16%[25.6 µM] | 3.6e-08 | i | 3.3%[25.7 µM] | i
> COc1ccc(OC)c([C@@H](O)[C@H](C)NC(C)(C)C)c1
    / | 1e-09 | i | / | i
> O=C1CC(N2CC=C(c3ccccc3)CC2)C(=O)N1c1ccc(F)cc1 (stereo not drawn)
    ? | / | / | 5.2% | /
> CC1CN(O)C2CCc3nonc3C12O (stereo not drawn)
    -19% | 3.3e-08 | i | 0.7% | i
> c1ccc(N2CC[C@@]3(CCCNC3)C2)nc1
    22% | 1e-09 | i | 2.1% | i
> CC(C)c1ccc(OCC(=O)N2CCN(C)CC2)c(Br)c1
    4% | 2.1e-09 | i | -2.9% | i
> COc1ccc(OCC(=O)N2CCN(Cc3c[nH]c4ccccc34)CC2)cc1
    11% | 1.7e-09 | i | 1.5% | i
> NC1CCCCC1N=Cc1c(O)n(CCc2ccc(F)cc2)c(=O)[nH]c1=O (stereo not drawn)
    ? | 4.4e-09 | i | -2.2% | i
> CC(=O)/C=C/c1ccccc1
    -4% | / | / | -2.1% | /
> CN1C(=O)C(Cc2c[nH]c3ccccc23)C(=O)N(C)C1=O
    -1% | 3.7e-08 | 1e-08M* | 1.9% | ?
> CCOc1ccc(-n2c(O)c(C=NCCN(CC)CC)c(=O)[nH]c2=O)cc1
    -4% | / | / | 0.8% | /
> OC12Oc3ccccc3C=C1N1CCC2CC1 (stereo not drawn)
    -6% | / | / | -1.7% | /
> CN1CCN(C(=O)OC2c3nccnc3C(=O)N2c2ccc(Cl)cn2)CC1 (stereo not drawn)
    5% | 1.9e-08&3.4e-08 | i | -1.4% | i
> Cc1cccc(C#N)c1
    -5% | / | / | -4.5% | /
> Cc1ccc(OP(=O)(Oc2ccc(C)cc2)N2C=Cc3ccccc3[C@H]2C#N)cc1
    5%[11.4 µM] | 1e-09 | i | 0.3%[11.5 µM] | i
> COc1ccc(CCn2c(O)c(C=NC3CC3)c(=O)[nH]c2=O)cc1OC
    5% | 5.8e-09 | i | 0.4% | i
> c1ccc(CN2CCC3(CCc4ccccc43)CC2)cc1
    ? | / | / | -1.3% | /
> c1ccc(CCN2CCCCCC2)nc1
    -5%[11.4 µM] | 6.6e-09 | i | 6.4%[11.5 µM] | i
> O=C(COc1ccccc1)N1CCN(Cc2c[nH]c3ccccc23)CC1
    21% | / | / | 0.4% | /
> Cc1ccc2c(C)cccc2c1
    -3% | / | / | -1.6% | /
> CCCCOCCOP(=O)(OCCOCCCC)OCCOCCCC
    ? | / | / | 0.8% | /
> CN1CC[C@@]2(CCCN(C(=O)c3ccco3)C2)C1
    2% | 2.9e-08 | i | 3.1% | i
> CC1CCCC(C2(O)C(=O)Nc3ccccc32)C1=O (stereo not drawn)
    3% | 3.6e-08 | i | 0.5% | i
> CCCCOc1ccc(CN2CCN(CCO)CC2)cc1
    9% | / | / | 2.7% | /
> Cn1ccnc1P(=S)(c1nccn1C)c1nccn1C
    2% | 1.6e-08 | i | 0.6% | i
> CCCCn1c(O)c(C(C)=NC(Cc2c[nH]c3ccccc23)C(=O)OC)c(=O)[nH]c1=O (stereo not drawn)
    ? | 2.3e-08 | i | 1.7% | i
> Clc1cc(Cl)c(-c2cc(Cl)c(Cl)cc2Cl)cc1Cl
    ? | / | / | -2.0% | /
> CN(C)[C@@H]1C(=O)C(C(N)=O)=C(O)[C@@]2(O)C(=O)C3=C(O)c4c(O)cccc4[C@@](C)(O)[C@H]3C[C@@H]12
    / | 6.3e-09 | i | / | i
> O=c1[nH]c(=O)n(CCC2=CCCCC2)c(O)c1C=NCCN1CCNCC1
    24% | 1.7e-08 | i | -1.0% | i
> CC(C)(C)c1ccc(O)c(CN2CCN(c3ccccc3)CC2)c1
    ? | 4.5e-08 | i | -1.4% | i
> COC(=O)CSC1=NP(=S)(SCC(=O)OC)N2CCCC2=C1C#N (stereo not drawn)
    -15% | 2.9e-08 | i | -1.0% | i
> Cn1c(=O)cc(OCC(=O)N2CCN(C3CCCCC3)CC2)c2ccccc21
    4% | / | / | 3.0% | /
> O=C(O)[C@@H]1[C@H](C(=O)O)[C@]2(Cl)C(Cl)=C(Cl)[C@@]1(Cl)C2(Cl)Cl
    -2%[11.4 µM] | 3e-09 | i | 1.4%[11.5 µM] | i
> CC12CN3CC(C)(CN(C1)C31CCSCC1)C2=O
    -1% | 3.7e-08 | i | 1.2% | i
> ClCBr
    3% | / | / | -0.1% | /
> O=C(C1CCC(=O)N1Cc1ccc(F)cc1)N1CCC2(CC1)OCCO2 (stereo not drawn)
    -7% | 1e-09 | i | 0.3% | i
> CCCC(C)C1(CC)C(=O)NC(=Nc2ccccc2OC)NC1=O (stereo not drawn)
    -18% | 2.7e-08 | i | 0.9% | i
> O=C(Nc1cccc(F)c1)N1CC[C@@]2(CCCN(C(=O)Oc3ccccc3)C2)C1
    ? | 3.1e-08 | i | -1.6% | i
> C#CCO
    3% | / | / | -0.2% | /
> CC(=NCC1CCCO1)c1c(O)n(C)c(=O)n(C)c1=O (stereo not drawn)
    3% | 3.5e-08 | i | -0.3% | i
> NC(N)=S
    ? | / | / | -0.6% | /
> Oc1ccccc1Cl
    0% | / | / | -1.1% | /
> O=C(NCc1cccnc1)NC1CCCCC1
    1% | 1e-09 | i | 2.5% | i
> NCC#Cc1ccccc1
    12% | 5.2e-09 | i | -0.3% | i
> Oc1ccc([C@H](O)[C@@H]2CCCCN2)cc1O
    14%[11.4 µM] | 4.6e-08 | i | -4.0%[11.5 µM] | i
> CCOC(=O)C1=C(C)OC(N)=C(C(=O)OCC)C12C(=O)Nc1ccc(Br)cc12 (stereo not drawn)
    6% | 1.7e-09 | i | 1.5% | i
> Cc1ccccc1N1C(=O)CC(=O)NC1=O
    -7% | 1e-09 | i | 2.5% | i
> N#CSCSC#N
    ? | / | / | -3.4% | /
> C[C@@H](Cc1ccc(Cl)cc1Cl)NO
    1%[11.4 µM] | 2.4e-08 | i | -4.8%[11.5 µM] | i
> O=S(=O)(Cl)c1ccccc1
    -1% | / | / | -5.7% | /

# 6 records picked at random from those above:
# The line under a structure holds: TSHR agonist | A647 fluor | Resorufin autofl | AID923 | A488 autofl
> O=S(=O)(Cl)c1ccccc1
    -1% | / | / | -5.7% | /
> CCCCn1c(O)c(C(C)=NC(Cc2c[nH]c3ccccc23)C(=O)OC)c(=O)[nH]c1=O (stereo not drawn)
    ? | 2.3e-08 | i | 1.7% | i
> C#CCO
    3% | / | / | -0.2% | /
> Clc1cc(Cl)c(-c2cc(Cl)c(Cl)cc2Cl)cc1Cl
    ? | / | / | -2.0% | /
> Oc1ccccc1Cl
    0% | / | / | -1.1% | /
> NCC#Cc1ccccc1
    12% | 5.2e-09 | i | -0.3% | i

# Carrying on.
# The line under a structure holds: TSHR agonist | A647 fluor | Resorufin autofl | AID923 | A488 autofl
> Cc1nn(CCC#N)c2c1P(=S)(N1CCCC1)OC(c1ccc(F)cc1)=N2 (stereo not drawn)
    16µM* | 2.3e-08 | i | -2.2% | i
> Cc1nn(-c2ccccc2)c(Cl)c1C1C(C#N)=C(N)Oc2c1c(=O)oc1ccccc21 (stereo not drawn)
    / | 1e-09 | i | 2.6% | i
> CCOC(=O)C(O)(c1ccc(NC(=O)c2ccco2)c(OC)c1)C(F)(F)F (stereo not drawn)
    14% | 1e-09 | i | -1.1% | i
> Cc1cc(O)c2c(c1)C(=O)c1cc(O)cc(O)c1C2=O
    ? | 1.7e-09&2.8e-09 | i | -1.0% | i
> CCOC(=O)c1cccc(NC2c3ccccc3C(=O)N2Cc2ccco2)c1 (stereo not drawn)
    ? | / | / | 2.3% | /
> Cc1ccc(S(=O)(=O)NC(CC(=O)N2CCC3(CC2)OCCO3)c2ccco2)cc1 (stereo not drawn)
    -3% | 4.4e-08 | i | 0.2% | i
> CCCCCP(=O)(O)c1ccccc1
    0% | / | / | 0.7% | /
> c1ccc(/N=C2\N=C(Nc3ccccn3)c3ccccc32)nc1
    7.9µM* | 7.6e-09 | i | 2.6% | i
> CN(C)[C@@H]1C(=O)C(C(N)=O)=C(O)[C@]2(O)C(=O)C3=C(O)c4c(O)ccc(Cl)c4[C@](C)(O)[C@H]3C[C@@H]12
    5%[25.6 µM] | 1.4e-08 | i | 1.6%[25.7 µM] | i
> CNC(=O)[C@@H]1C[C@H]1[C@@H](NP(=O)(c1ccccc1)c1ccccc1)c1ccccc1
    ? | / | / | -1.3% | /
> CC[C@@H]1CN2CCc3cc(OC)c(OC)cc3[C@H]2C[C@@H]1C[C@@H]1NCCc2cc(O)c(OC)cc21
    -15%[25.6 µM] | 1.3e-08 | i | 2.2%[25.7 µM] | i
> Cc1ccc2cccc(OC(=O)N3CCCC3)c2n1
    10% | 1e-09 | i | -0.7% | i
> CCCN1CCC[C@@H]2Cc3[nH]ncc3C[C@H]21
    3% | 1.4e-09&6.1e-08&4.4e-08 | i | 3.6% | i
> CCC(C)N1C(=O)NC(=O)C2(Cc3cc(C)ccc3N(C)C2)C1=O (stereo not drawn)
    -1% | 2.8e-09 | i | 1.0% | i
> CC(=NCCC1=CCCCC1)c1c(O)[nH]c(=O)[nH]c1=O
    ? | 2.4e-08 | i | -0.7% | i
> C[C@H](N)CN1CCc2ccc(Br)cc21
    -11% | 2.7e-08 | i | -3.8% | i
> c1cncc(CNCCN2CCNCC2)c1
    2%[11.4 µM] | 3.4e-08 | i | -2.9%[11.5 µM] | i
> Cc1ccc2nc(-c3ccncc3)cc(C(=O)N3CCC4(CC3)OCCO4)c2c1
    5% | 1e-09 | i | -2.1% | i
> O=NN(CCCl)C(=O)NCCCl
    ? | 1.9e-08 | i | -0.1%&-0.1% | i
> O=C(c1cnccn1)N1CCC2(CC1)CN(Cc1ccncc1)C2
    1% | 2.8e-08 | i | 0.8% | i
